# Screening data (PubChem BioAssay)
# NPYLR7 agonist – agonists of mosquito NPYLR7 receptor, primary screen, cell-based, Aedes aegypti, calcium fluorescence, mosquito biting behavior; Aedes aegypti neuropeptide Y-like receptor 7 (NPYLR7); HEK293T NPYLR7/Galpha15, GCaMP6s calcium fluorescence; activation, % at 10 µM; 270,000 compounds, 0.15% hits; AID 1259423, 2018; in the data active = activation above about 40%;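 note: 0% = vehicle and 100% = reference agonist at the receptor; some compounds past the cut are filed as inactive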
# NPYLR7 agonist max-min – recorded beside NPYLR7 agonist, whose call it bears; activation, %; measured here: Max-Min RFU normalised activation; some inactives read as strong as hits;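 span of the calcium signal over five minutes; 0% = vehicle and 100% = native peptide agonist; compound fluorescence can raise it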
# * = called active by the depositor; & = joins results of further samples.
# Sample of the layout:
# Fields – NPYLR7 agonist max-min, NPYLR7 agonist
- COc1nccnc1-c1cccc(C(C)N2CCCC2)c1 (stereo not drawn)
→ 10, 15
- CNc1cccc(-c2cccc(C(=O)N3CCOCC3)c2)n1
→ 2, 5
- O=C1NC(=S)NC(=O)C1=Cc1ccc(OCc2ccc(Cl)cc2)cc1
→ -4, 0
- O=C(c1c(F)cccc1F)N1CCC(c2nc(-c3ccccc3)no2)CC1
→ 16, 27
- Cn1cc(C(=O)NC2CCCN(c3ccc(C(F)(F)F)cn3)C2)c(=O)c2ccccc21 (stereo not drawn)
→ 3, 12

# The list itself, repeating the preview:
# Fields – NPYLR7 agonist max-min, NPYLR7 agonist
- COc1nccnc1-c1cccc(C(C)N2CCCC2)c1 (stereo not drawn)
→ 10, 15
- CNc1cccc(-c2cccc(C(=O)N3CCOCC3)c2)n1
→ 2, 5
- O=C1NC(=S)NC(=O)C1=Cc1ccc(OCc2ccc(Cl)cc2)cc1
→ -4, 0
- O=C(c1c(F)cccc1F)N1CCC(c2nc(-c3ccccc3)no2)CC1
→ 16, 27
- Cn1cc(C(=O)NC2CCCN(c3ccc(C(F)(F)F)cn3)C2)c(=O)c2ccccc21 (stereo not drawn)
→ 3, 12
- CC1(CCC(=O)N2CCCC(N3CCN(c4ccc(F)cc4)CC3)C2)CC1 (stereo not drawn)
→ -3, 0
- CC(=O)NC1=NN(C(C)=O)C(C)(c2ccc(C)o2)S1 (stereo not drawn)
→ 11, 16
- CC(=CC(=O)O)C1CCCCC1
→ -28, -19
- CCn1c(O)c(C=NNC(=O)C2CCCCC2)c(=O)n(CC)c1=S
→ -1, 1
- CCCc1nnc2c(C(=O)N[C@@H]3C[C@H]4CC[C@@H]3C4)cccn12
→ -11, -10
- COc1cc2sc(C(=O)NCC(F)(F)C(F)(F)C(F)(F)F)c(Cl)c2cc1OC
→ 1, 1
- Cc1ccc(C)c(NC(=O)C2CCCN(C(=O)c3ccoc3)C2)c1 (stereo not drawn)
→ 1, 0
- CC(C)(C)CC(C)(C)c1ccc(OCC(=O)NNC(=O)Nc2ccccc2)cc1
→ -10, -6
- COc1cccc(CN2C(=O)NC(C)(C3CCN(C(=O)CC(C)C)CC3)C2=O)c1OC (stereo not drawn)
→ 8, 14
- COc1ccc(OC)c(NC(=O)C2CC=CCC2C(=O)N2CCC(C#N)(c3ccccc3)CC2)c1 (stereo not drawn)
→ -14, -10
- O=C(Nc1cc(-c2ccccc2)sc1C(=O)O)c1ccc(Cl)s1
→ 6, 0
- COc1cc(-c2[nH]nc3nccc(-c4cccc(C(=O)NCCN(C)C)c4)c23)cc(OC)c1OC
→ 8, 9
- CCC1(C)N=c2c(c(=O)n(C)c(=O)n2C)=NO1 (stereo not drawn)
→ -8, -4
- CCN(CC(=O)N(C)C)C(=O)C1(C)CC1(Cl)Cl (stereo not drawn)
→ -1, 3
- COc1cc(CNC(=O)N2CCN(Cc3ccc(C#N)cc3)CC2)cc(OC)c1OC
→ 1, 3
- Cn1cnnc1SCC(=O)N1c2ccccc2Sc2ccccc21
→ 9, 8
- O=C1CN(C(=O)c2nn(-c3ccc(F)cc3)c3c2CCCC3)c2ccccc2N1
→ -1, -2
- CCOC(=O)N1CCN(C(=O)c2cc(-c3ccc(OC)cc3)n(-c3ccccc3Cl)c2C)CC1
→ 15, 18
- CCC(C(=O)N1CCN(c2ncccc2C(=O)NCc2ccc3c(c2)OCO3)CC1)c1ccccc1 (stereo not drawn)
→ -1, -5
- COCCN(Cc1cnc(S(=O)(=O)C(C)C)n1Cc1ccccc1F)C(C)C
→ -2, 0
- CCOC(=O)C1(Cc2cccc(F)c2)CCN(Cc2ccncc2)CC1
→ -2&5, 2&2
- COc1ccc(Cl)c2sc(N(CCN3CCOCC3)C(=O)c3cc(C)on3)nc12
→ 2, 5
- Oc1oc(-c2ccccc2F)nc1C=Nc1cccc(C(F)(F)F)c1
→ -8, -3
- Cc1onc(-c2ccccc2Cl)c1C(=O)NC(c1ccccc1)c1ccccc1
→ 3, -2
- CNS(=O)(=O)c1cc(NS(=O)(=O)c2ccc(C)cc2C)ccc1C
→ -4, -2
- CC(=O)Nc1ccc(-c2ccc(S(C)(=O)=O)cc2)c2cccnc12
→ 0, 2
- CCN=c1scc(-c2ccc(C)cc2)n1N=Cc1ccc(O)cc1O
→ 46, 1
- N#CCn1c(=S)[nH]c2ccccc21
→ -2, 2
- CC(c1ccon1)N(C)Cc1cn(Cc2ccccc2)nc1-c1ccc2c(c1)OCO2 (stereo not drawn)
→ 3, 6
- O=S(=O)(Nc1ccccc1Cl)C1=Cc2ccccc2CC1
→ 1, 4
- O=C(/C=C/c1cccs1)N1CC[C@@H](N2CCN(c3ccccc3F)CC2)[C@H](O)C1
→ 8, 16
- COc1ccc2ccccc2c1CNC1CCN(c2ccc(C(=O)N3CCOCC3)cc2)CC1
→ 18, 15
- Cc1ccc(N2C(=O)CC(Sc3nc(CC(C)C)ccc3C#N)C2=O)cc1 (stereo not drawn)
→ -1, 0
- COc1cc(NC(=O)CN2c3ccccc3C[C@H]2C(N)=O)c(OC)cc1Cl
→ -148, -4
- CCOc1ccccc1C1C(C(N)=O)=C(C)Nc2nc(-c3cccs3)nn21 (stereo not drawn)
→ 3, 3

# Arranged by molar mass (rising): part of the list above.
# Fields – NPYLR7 agonist max-min, NPYLR7 agonist
- O=S(=O)(Nc1ccccc1Cl)C1=Cc2ccccc2CC1
→ 1, 4
- Cc1ccc(N2C(=O)CC(Sc3nc(CC(C)C)ccc3C#N)C2=O)cc1 (stereo not drawn)
→ -1, 0
- COc1cc(NC(=O)CN2c3ccccc3C[C@H]2C(N)=O)c(OC)cc1Cl
→ -148, -4
- COc1ccc2ccccc2c1CNC1CCN(c2ccc(C(=O)N3CCOCC3)cc2)CC1
→ 18, 15

# Next section.
# Fields – NPYLR7 agonist max-min, NPYLR7 agonist
- O=C(NC1CCN(c2ccccc2C(=O)N2CCN(c3ccccn3)CC2)CC1)c1cccc(Br)c1
→ 10, -2
- CNC(=O)c1ccc(OC)c(-c2cc(F)ccc2C)c1
→ 0, 0
- COc1cc(NC(=O)N(CC(=O)Nc2cc(C(C)(C)C)nn2-c2ccccc2Cl)Cc2ccccc2)cc(OC)c1
→ 6, -1
- O=C(CC(c1ccccc1)c1ccccc1)Nc1nc2ccccc2s1
→ -21, -16
- CNCc1ccccc1Sc1ccc(O)cc1
→ 0, 1
- CCC(COC)NC(=O)CCc1nnc(CCCCc2ccccc2)o1 (stereo not drawn)
→ 1, 2
- Cc1cccc(COn2cccc(C(=O)Nc3ccc(Cl)cc3)c2=O)c1
→ 11, 3
- CCCNC(=O)N(CCN1CCOCC1)Cc1nccn1Cc1ccc(Cl)cc1Cl
→ 6, 5
- Cc1ccccc1SC1CCN(Cc2nc(CCC(C)C)no2)CC1
→ -2, 3
- COc1ccc(C(=O)N2CCN(c3cc(Cl)nc(SCC(=O)NCCc4ccc(Cl)cc4Cl)n3)CC2C)cc1 (stereo not drawn)
→ 6, 0
- CC1CCN(C(C)CNS(=O)(=O)c2cc(F)ccc2F)CC1 (stereo not drawn)
→ 1, 2
- O=C1N(Cc2ccc(F)cc2F)c2ccc(F)cc2C12NCCS2 (stereo not drawn)
→ 23, 18
- CCCCC(=O)N(CCn1cccn1)c1nc2c(F)cccc2s1
→ -18, -12
- O=C(CC1CSc2nccc(=O)n21)NCc1ccccn1 (stereo not drawn)
→ -2, -2
- C/C=C/C(=O)Nc1ccccc1-c1cccc(NC(C)=O)c1
→ 2, 5
- CC(=O)Nc1cccc(OC(=O)N(c2ccccc2)c2ccccc2)c1
→ 14, 0
- COc1cc(C(=O)N2CCC(c3nc(-c4ccc(Cl)cc4)no3)CC2)cc(OC)c1OC
→ -2, 4
- COc1cccc(-c2ccc3nnc(-c4ccc(OCCCN(C)C)cc4)n3c2)c1
→ 1, 8
- COCc1ccc(C(=O)O)o1
→ 5, 1
- Cc1ccc(-n2c(-c3ccc(F)cc3)cc(C(=O)N3CCN(C(=O)C4CC4)CC3)c2C)cc1
→ -2, -6
- COc1cc(C)ccc1Oc1ccc(NC(=O)C2CCCN2C(=O)OC(C)(C)C)cn1 (stereo not drawn)
→ 2, 5
- CCOc1ccc(CN(CCc2c[nH]c3ccccc23)Cc2nc(C(=O)NCc3cccnc3)co2)cc1
→ 17, 19
- Cc1nc(CNC(=O)c2sccc2OC(F)F)cs1
→ 3, 9
- O=C(c1ccco1)N1CCc2ccccc2C1c1ccccc1Cl (stereo not drawn)
→ 6, 2
- C=CCOc1c(Cl)cc(C(=O)NC(C)c2n[nH]c(=O)[nH]2)cc1Cl (stereo not drawn)
→ 6, 4
- CCOC(=O)C1=C(C)NC2=C(C(=O)CC(c3ccc(Cl)cc3)C2)C1c1cccc(Cl)c1Cl (stereo not drawn)
→ -10, -2
- COc1cccc(Cl)c1-c1ccc(OCC(N)=O)c(C)c1
→ -3, 0
- Cc1ccc(C(=O)N2CCC(n3nccc3NC(=O)Nc3ccccc3C)CC2)s1
→ -1&1, 0&6
- Cc1ccc(CNc2nc(N)c([N+](=O)[O-])c(NCC3CCCO3)n2)cc1 (stereo not drawn)
→ 2, 1
- O=C(Nc1ccc(-c2ccccc2)cc1)N1CC[C@H](CO)[C@H](O)C1
→ -3, 1
- CCc1cccc2sc(N(Cc3ccccn3)C(=O)CS(=O)(=O)c3ccccc3)nc12
→ -9, -5
- Cc1ccc(/C=N\NC(=O)CSc2nnc(-c3ccccc3)n2-c2ccccc2)o1
→ -10, -4
- CCCC(=O)N(Cc1ccccn1)c1nc2c(C)c(Cl)ccc2s1
→ -2, 0
- NC(=O)C1CCCN(c2ncnc3sc4c(c23)CCCCC4)C1 (stereo not drawn)
→ 4, 6
- CCN(CC(=O)NCc1cccnc1)Cc1cccc2c1OCCO2
→ 0, 2
- Cc1cc(C)n(-c2ccc(C(=O)N3CCCC(N(C)C)CC3)cc2)n1 (stereo not drawn)
→ 9, 13
- COCC(=O)Nc1ccc(N2CCN(C(=O)COCc3ccccc3)CC2)nc1
→ 2, 2
- COc1cccc(-c2cc(C(=O)NC(C)c3ccccc3)nc3cc(-c4ccccc4)nn23)c1 (stereo not drawn)
→ -3&27, -5&18
- CCCCN1N=C(c2ccc(F)cc2)Cn2c1nc1c2c(=O)n(CCCC)c(=O)n1C
→ 12, 8
- Cc1ccccc1NC1CCN(C(=O)c2c(C)oc(C)c2C)CC1
→ 6, 7
- O=C(CC1CC2CCC1C2)NC1CCOc2ccccc21 (stereo not drawn)
→ 25, 4
- O=C(c1cnn2c1NC(c1cccs1)CC2C(F)(F)F)N1CCSCC1 (stereo not drawn)
→ 0, 5
- N#CCCN1CCN(C(=O)CCc2cc3c(n2-c2ccc4c(c2)OCO4)-c2ccccc2CC3)CC1
→ 8, 16
- CCC(C)NC(=O)CN1CCc2cc(-c3csc(C)n3)ccc21 (stereo not drawn)
→ 6, 5
- COc1ccc(C(=O)N2CCN(C(C(=O)Nc3ccc(F)cc3)C3CCCC3)CC2)cc1 (stereo not drawn)
→ -10, -7
- CC(NC(=O)c1csc2c1CCCC2)c1nnc2n1CCC2 (stereo not drawn)
→ -1, -1
- COc1cccc(C(=O)Nc2cccc(-n3nc(OCC(C)C)nc3-c3ccc(F)cc3)c2)c1
→ 21, 15
- CC(C)c1nccc(CN2CCCC2c2ccc(F)cc2)n1 (stereo not drawn)
→ 1, 6
- CCCCN(C)C(=O)c1sc(=O)n(CC(=O)c2ccc(F)cc2)c1C
→ -2, -3
- CCc1cc(CN(C)Cc2cccc(OC)c2O)on1
→ 1, 0

# Additional records follow.
# Fields – NPYLR7 agonist max-min, NPYLR7 agonist
- CC1CCc2ccc(F)cc2N1S(=O)(=O)c1cccs1 (stereo not drawn)
→ 1, 3
- O=C(NCc1ccc(F)cc1)c1coc(CN(CCc2c[nH]c3ccccc23)Cc2cccc(Oc3ccccc3)c2)n1
→ 20, 24
- CCCCC(CC)C(=O)Nc1c(-c2ccccc2OC)nc2cc(C)ccn12 (stereo not drawn)
→ -7, -10
- Cc1ccccc1-n1c(SCc2ccc(C(=O)N3CCOCC3)cc2)nnc1-c1ccccc1Cl
→ 24, 16
- C=CCN=C1NS(=O)(=O)c2ccccc21
→ -4, 5
- CCC(CO)NC(=O)CN1CCN(c2ccc3c(c2)OCCO3)C1=O (stereo not drawn)
→ 0, 2
- CCCn1cc(C(=O)N(Cc2ccccn2)CC2CCCO2)c(C)n1 (stereo not drawn)
→ -10, -3
- COC(=O)c1ccc(CSc2ccc(NC(=O)c3ccco3)nn2)o1
→ -4, 5
- COc1ccc(-n2nc(C(=O)N3CCCC3)c(=O)n(Cc3cccc(C(F)(F)F)c3)c2=O)cc1OC
→ 8, 10
- O=C(c1ccc(-c2ccc3c(c2)OCCO3)s1)N1CC(=O)N2CCc3cc(F)ccc3C2C1 (stereo not drawn)
→ 37, 36
- CN1CCCc2cc(NC(=O)NCCC(=O)NC3CCCC3)ccc21
→ -2, 1
- Cc1ccc(Cl)c2sc(N(CCCN3CCOCC3)C(=O)c3ccc(C#N)cc3)nc12
→ -6, 0
- Cc1c(CCC(C)C)c(NCCN2CCOCC2)n2c(nc3ccccc32)c1C#N
→ 5, 8
- CN(C)c1nc2c(c(=O)[nH]1)CCN(C(=O)c1ccccc1C(F)(F)F)C2
→ 2, 2
- O=c1c2nc(N3CCOCC3)sc2c(-c2cccs2)nn1Cc1cccc2ccccc12
→ -5, -2
- COc1cccc(Nc2nccc3[nH]c(-c4cccc(OC)c4F)nc23)c1
→ -10, -5
- CN1CCC(N(C)P2(=O)C=C(c3ccccc3)SC(c3ccccc3)=C2)CC1
→ 0&1, 3&1
- CC1=NN(Cc2ccccc2C)c2nc3c(c(=O)n(C)c(=O)n3C)n2C1
→ -4, -4
- Cc1nn(-c2ccccc2)c(Oc2ccccc2)c1CN(CC(O)CN1CCOCC1)CC1CCCO1 (stereo not drawn)
→ -8, -9
- COCCN(CCN(C(C)=O)c1ccc(F)cc1)C(C)=O
→ 4, 7
- O=S(=O)(c1ccc(F)cc1)N1CCN(c2c3c(nc4ncnn24)CCC3)CC1
→ 0, 5
- Cc1c(C=Cc2ccsc2)n[nH]c(=O)c1C#N
→ 4, 7
- CC(C(=O)N1CC(=O)Nc2ccccc21)N(Cc1ccc(F)cc1)C1CC1 (stereo not drawn)
→ -4, -1

# An excerpt, so the mix of outcomes need not match the whole.
